# High-throughput results from PubChem.
# Beta2AR agonist: activates human beta-2 adrenergic receptor causing internalization | P07550 | Am2.2-beta2AR cells, FAP receptor internalization, flow cytometry; reference of the scale not given here | response, % (test concentration not listed) | hit rate 0.43% among 340,000;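 active = response above a set limit, near 3 SD of response in nonfluorescent compounds, cut at about 42% in these data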;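 note: stock transfer was 100 nL into about 11 µL; a reference agonist was the positive control; negative values mostly stem from fluorescent compounds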
# Ecoli rRNA inh: selective bacterial rRNA inhibition in E. coli | GFP signal change (wild-type ribosome), % (concentration not given with the values) | E. coli WT GFP vs humanized-ribosome RFP mutants, fluorescence, 24 h; active compounds read low; DMSO median 0, no signal -100 | hit rate 1.6% among 350,000;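 active = significant combined selectivity score with lowered wild-type GFP, culture density cut under 30%, mutant RFP and density less affected; inactive = any of these conditions unmet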; note: one replicate is shown; some compounds called inactive have numbers as strong as hits
# LANA-H2B inh: blocks KSHV LANA binding to histone H2A/H2B | AID 2629 | Q9QR71 | cell-free LANA-H2A/H2B peptide, fluorescence polarization | hit rate 0.6% among 320,000 | inhibition, % (test concentration not listed); in the data active = inhibition mostly above about 10%, no sharp cut-off; inactive = mostly below about 6.7%;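 note: stock transfer was 7.5 nL into about 10 µL; 0% = median of vehicle wells and 100% = median of positive control wells; one replicate is shown; the record names a cut of 25% in any replicate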
# Target sequence (Q9QR71 whole entry, looked up): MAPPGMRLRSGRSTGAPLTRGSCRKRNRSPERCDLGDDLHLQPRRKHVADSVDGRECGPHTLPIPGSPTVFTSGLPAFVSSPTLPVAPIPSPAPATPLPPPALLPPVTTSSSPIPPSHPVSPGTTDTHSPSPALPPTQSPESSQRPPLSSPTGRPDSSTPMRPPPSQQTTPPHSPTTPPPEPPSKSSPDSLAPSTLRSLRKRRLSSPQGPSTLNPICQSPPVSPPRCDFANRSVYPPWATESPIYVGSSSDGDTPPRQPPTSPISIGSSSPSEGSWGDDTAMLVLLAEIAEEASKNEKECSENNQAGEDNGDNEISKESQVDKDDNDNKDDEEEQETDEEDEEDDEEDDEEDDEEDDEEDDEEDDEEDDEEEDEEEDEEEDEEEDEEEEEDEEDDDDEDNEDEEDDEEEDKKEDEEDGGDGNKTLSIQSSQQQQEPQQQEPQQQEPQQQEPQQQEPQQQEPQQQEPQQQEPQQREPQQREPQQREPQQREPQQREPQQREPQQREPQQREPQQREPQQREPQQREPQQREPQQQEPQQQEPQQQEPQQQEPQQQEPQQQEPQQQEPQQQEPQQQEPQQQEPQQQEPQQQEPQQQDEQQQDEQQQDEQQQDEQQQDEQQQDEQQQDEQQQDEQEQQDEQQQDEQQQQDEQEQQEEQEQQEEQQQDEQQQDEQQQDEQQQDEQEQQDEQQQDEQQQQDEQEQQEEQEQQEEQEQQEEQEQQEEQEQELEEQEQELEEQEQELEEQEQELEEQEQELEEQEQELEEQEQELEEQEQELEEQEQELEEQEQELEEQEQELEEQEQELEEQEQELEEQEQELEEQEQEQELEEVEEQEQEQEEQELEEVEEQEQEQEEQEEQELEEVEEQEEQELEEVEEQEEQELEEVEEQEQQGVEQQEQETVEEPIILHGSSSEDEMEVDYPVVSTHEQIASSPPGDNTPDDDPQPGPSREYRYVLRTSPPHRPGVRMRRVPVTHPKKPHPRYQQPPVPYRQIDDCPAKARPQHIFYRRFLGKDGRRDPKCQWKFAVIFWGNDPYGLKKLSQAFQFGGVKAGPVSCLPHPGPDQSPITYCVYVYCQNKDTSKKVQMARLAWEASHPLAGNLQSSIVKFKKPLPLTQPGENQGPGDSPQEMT
# Beta cell apopt: beta cell apoptosis inhibition. INS-1E cytokine-induced death, ATP luminescence, 48 h; percent of positive-control rescue, neutral wells zero. protection from apoptosis, % (test concentration not listed). hit rate 0.8% among 300,000. AID 435005;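 active = all replicates at 75% or more, or half of them and the mean; inconclusive = half reach 75% but not the mean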;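 note: 0% = cytokine-treated negative control wells and 100% = positive control rescue; higher means more ATP so stronger rescue from cytokine killing; wells of about 40 µL received 100 nL stock; the first replicate is given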
# Calb FLC: affects C. albicans growth with fluconazole | C. albicans CaCi-2 (fluconazole-resistant clinical isolate) + fluconazole, Alamar Blue growth, 48 h | AID 1979 | hit rate 0.57% among 300,000 | growth inhibition, % (test concentration not listed);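 active = most replicates above 75%; inconclusive = exactly half above 75%; inactive = most below 75%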;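 note: all wells also contain fluconazole at 8 µg/ml as a sub-toxic cotreatment; 0% = median of DMSO wells and 100% = median of geldanamycin control wells; wells of about 8 µL received 7.5 nL stock; the first replicate is given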
# ALR H2O2 inh: human ALR oxidase inhibition via reduced H2O2 | inhibition, % (no concentration beside the values) | hit rate 3.8% among 290,000 | purified ALR, DTT oxidation, H2O2 HRP-luminol luminescence | P55789;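 active = mean and each replicate at 75% or more; inconclusive = only one of the two met; inactive = neither met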;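 note: stock transfer was 7.5 nL into about 7.5 µL; 0% = neutral wells and 100% = wells with inactivated enzyme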
# Bfl-1 A1 inh: inhibitors of the anti-apoptotic protein A1, read as caspase activation; MEF A1-2A-BIM cells, Caspase-Glo 3/7 luminescence, 3 h; percent of clofoctol response, vehicle zero; caspase activation, % (test concentration not listed); hit rate 0.066% among 330,000;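 active = over half of replicate activation scores above 10%, or exactly half above 10 with the replicate mean above 10; inconclusive = replicate mean below 10 yet half the replicates above 10; inactive = over half of replicates below 10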;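 note: wells of about 30 µL received 50 nL stock; many hits fall short of the cut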
# T cruzi repl: T. cruzi replication inhibition; T. cruzi beta-gal in NIH3T3, luminescence, 90 h; inhibition, % (no concentration beside the values); hit rate 1.4% among 300,000; AID 1885;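 active = mean inhibition across valid replicates above about 55%, limit read from the data; inconclusive = mean below that limit but half or more replicates reach it; inactive = mean below it, under half of replicates reach it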;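 note: signal also drops with host cell toxicity which is not excluded here; 0% = plate median of DMSO wells and 100% = zero luminescence signal; higher percent means less beta-gal luminescence so fewer parasites; stock transfer was 50 nL into about 50 µL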
# Ecoli rRNA inh OD600: second read-out of Ecoli rRNA inh, no call of its own (marks repeat the call); OD600 change, %; measured here: OD600 growth;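 optical density of the mix in the first replicate; 0 = DMSO median and -100 = no signal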
# Ecoli rRNA inh RFP: recorded beside Ecoli rRNA inh, whose call it bears; RFP signal change, %; measured here: RFP humanized mutant strains;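 first replicate; 0 = DMSO median and -100 = no signal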
# Starred values were filed as active, the others as inactive; u = inconclusive; x = not tested or not shown; & = joins results of further samples.
SMILES,Beta2AR agonist,Ecoli rRNA inh,Ecoli rRNA inh OD600,Ecoli rRNA inh RFP,LANA-H2B inh,Beta cell apopt,Calb FLC,ALR H2O2 inh,Bfl-1 A1 inh,T cruzi repl
C[C@H](CO)N1C[C@H](C)[C@@H](CN(C)S(=O)(=O)c2ccccc2)Oc2c(NS(=O)(=O)c3cccs3)cccc2C1=O,-2,-6&-3,-5&1,-2.6&5.9,1.6,-3,x,0,0.9,x
CCOC(=O)C1=NNC(C(=O)c2ccc(OC)cc2)C1c1ccccc1 (stereo not drawn),0,x,x,x,0.5,0,8,-7,0.7,16
NC1=NC2(CCCCCC2)n2c(nc3ccccc32)N1,0,x,x,x,4.2,x,-10,-3,0.9,34
COc1cc(Cl)c(C)cc1NC(=O)c1ccc2c(c1)OCO2,1,11,20,3.3,-4.6,x,12,-1,-0.4,4
CCn1c(/N=C/c2ccc(OC)cc2O)nc2ccccc21,-2,12,13,2.1,0.3,x,0,-14,0.3,-15
C[C@H](NC(=O)C1CC(=O)N(c2ccc3c(c2)OCCO3)C1)C(=O)NC1CCCC1 (stereo partly drawn),-2,7,6,-1.0,0.1,-8,4,10,-0.9,-1
Cc1cccc(C)c1NC(=O)C(c1ccccc1)N1CCC2(CC1)OCCO2 (stereo not drawn),0,9,11,1.6,-0.9,4,14,-5,-0.1,-4
CCOc1ccc(C(=O)NC2CC3CCCC(C2)N3Cc2ccccc2)cc1 (stereo not drawn),-2,19,17,2.2,2.7,-6,-19,x,2.6,25
COc1ccc(CCNc2ncnc3c2nnn3Cc2ccccc2)cc1,8,5,7,-1.2,13,x,-1,-1,0.4,-4
Cc1ccc(CS(=O)(=O)CCC(=O)NCc2ccc(F)cc2)cc1,0,0,9,-1.9,4.1,1,-7,0,1.0,1
CCC(/C=C1\Sc2ccc(OC)cc2N1CC)=C\c1sc2ccc(OC)cc2[n+]1CCCS(=O)(=O)[O-],-16,6,9,2.2,0.2,103*,4,97*,-1.0,25
CCOC(=O)C(NCc1ccccc1OC)(NC(=O)CC)C(F)(F)F (stereo not drawn),5,x,x,x,6.8,-3,6,-16,0.8,1
COc1ccc(OCCC(=O)OCC(=O)NCCC2=CCCCC2)cc1,5,-24*,0.6*,2.7*,2.5,-7,-4,-19,0.1,-6
O=C(O)c1oc2ccccc2c1CSc1ccc(Cl)cc1,5,-57,-75,-16,2.0,-3,6,10,-0.9,-3
CCOC(=O)c1cccc2c(=O)c(C(=O)c3ccc(Cl)cc3)c(C(=O)OC)[nH]c12,22,x,x,x,2.6,-6,7,-2,0.2,0
CC1(C)NC(=O)N(CC(O)CN(c2ccccc2)S(=O)(=O)c2ccccc2)C1=O (stereo not drawn),-5,x,x,x,-0.2,-10,-10,-4,-0.2,0
CC1CCCCC12NC(=O)N(CC(=O)OCC(=O)NC(=O)c1ccccc1)C2=O (stereo not drawn),-3,12,11,2.9,-6.2,0,x,1,0.3,x
COc1ccc(CCNC(=O)COC(=O)c2ccc(Br)o2)cc1,2,x,x,x,5.1,0,-13,-9,0.4,-4
O=C1OC(Nc2ccc(Br)cn2)c2ccccc21 (stereo not drawn),-7,x,x,x,8.4,3,x,-2,-0.2,x
O=C(Nc1cc(Cl)cc(Cl)c1)N1CCCN(Cc2ccccc2)CC1,-2,-26,-65,31,-2.6,-3,-2,x,0.2,u
CCOCCc1nn2c(=O)cc(CSCC(=O)Nc3ccccc3)nc2s1,-3,3,16,-0.3,5.0,2,-8,99*,1.8,-4
C[C@H](CO)N1C[C@H](C)[C@@H](CN(C)S(=O)(=O)c2ccccc2)Oc2c(NS(=O)(=O)c3ccc(F)cc3)cccc2C1=O,0,-2&-6,3&3,-0.2&7.4,-1.1,-1,x,2,-0.8,x
Cn1c(=O)c2c(ncn2CC(=O)N2CCN(C(=O)c3ccco3)CC2)n(C)c1=O,-3,9,18,0.6,2.7,1,u,2,1.1,-5
O=C(NC(=S)N1CCN(C/C=C/c2ccccc2)CC1)c1c(F)cccc1F,0,-28,-40,8.1,x,0,1,x,0.8,-1
COc1ccccc1N1CCN(C(=O)COc2cccc3ccccc23)CC1,4,-10,-26,-0.6,-4.2,4,15,-10,0.7,20
CN1CCN(C(=O)C2CCCCC2C(=O)O)CC1 (stereo not drawn),8,2,5,-5.6,-0.3,-10,-1,-6,2.3,-6
CCC(C(=O)OC)n1cnc2c(nnn2-c2ccc(C)cc2)c1=O (stereo not drawn),8,1,0,-4.8,-0.3,-3,1,0,0.1,3
O=C1C2CC=C(Cl)CC2C(=O)N1c1ncn[nH]1 (stereo not drawn),1,x,x,x,-3.7,-1,8,-12,-0.1,1
[2H]C([2H])(CCOS(N)(=O)=O)c1ccccc1,-8,-6,-11,6.0,-2.1,-1,5,0,-0.7,11
CCOC(=O)C1(P(=O)(c2ccc(Cl)cc2)c2ccc(Cl)cc2)CCC1,-8,x,x,x,3.0,9,25,-2,1.5,5
CCOC(=O)c1c(NC(=O)c2ccc(S(=O)(=O)N3CCOCC3)cc2)sc2c1CC(C)(C)NC2(C)C,29,-2,12,-2.2,3.5,-1,-7,-2,-0.1,23
Cc1ccc(-n2nnc(-c3ccnc4ccccc34)n2)cc1,-5,3,5,-1.1,6.4,-2,-9,-2,-0.3,-24
O=c1ccn(Cc2ccc(F)cc2)c2ccnc(C(F)(F)F)c12,-2,x,x,x,-2.0,3,-24,-1,0.4,8
COc1ccc(CN(CC(=O)NC2CCCC2)C(=O)CN2C(=O)COc3ccccc32)cc1,-5,10,13,4.9,-0.3,6,-2,-10,0.2,12
C=CCN=C1N[C@@H](c2cccc(C(F)(F)F)c2)C(C(=O)OC)=C(C)N1CC,x,15,3,-6.1,5.4,-7,-7,0,0.5,3
CN(C(=O)C1CCOC1)c1nnc(C2CCOC2)s1 (stereo not drawn),-2,x,x,x,2.3,-3,-5,0,-0.3,-8
CN1C2=C(C#N)C(c3ccccc3)(C(F)(F)F)NC(=O)N2c2ccccc21 (stereo not drawn),-8,4,3,-2.9,-0.9,-2,6,0,0.4,8
O=C(/C=C/c1ccccc1Cl)Nc1ccc2c(c1)C(=O)NC2=O,10,6,7,11,-7.7,-20,-2,-1,-0.2,-39
COc1ccc(OC)c2c1sc(=NC(=O)C1CC1)n2C,-6,2,3,0.7,-1.2,-2,2,1,1.1,8
CN1C(=O)CC(N2CCN(Cc3ccc(Cl)cc3)CC2)C1=O (stereo not drawn),1,x,x,x,1.0,-6,-2,-10,0.0,-7
O=Cc1ccc(OCc2nnsc2Cl)cc1,-13,3,-2,-4.3,4.2,-1,32,-10,-0.4,-4
O=C(c1cccc([N+](=O)[O-])c1)N1CCOCC1,-1,x,x,x,4.0,-9,1,-4,0.8,-10
Cc1ccc(CC(=O)NCC(c2ccco2)N(C)C)cc1C (stereo not drawn),-1,4,-6,-0.5,1.4,x,-20,-1,2.3,-2
COc1cccc(NC(=O)CN(C)C(=O)CSCC(=O)Nc2ccc(C)cc2)c1,-4,-5,-12,6.2,-2.5,3,x,99*,-0.6,x
CC(=O)O[C@H]1CC[C@@]2(C)[C@@H](CC[C@H]3[C@@H]4CC[C@H](C(C)O)[C@@]4(C)CC(=O)[C@@H]32)C1 (stereo partly drawn),0,11,2,2.4,1.0,-7,-3,x,0.7,-10
CC(C)CNC(=O)c1noc2c1CCCC2,3,3,9,0.0,-0.2,x,-2,-7,-0.2,-12
CN(C)/C=C/C(=O)/C=C/c1ccc(Cl)cc1Cl,-5,-9,-8,-0.3,-0.1,-6,7,3,-0.4,-4
Cc1ccc(C(=O)NCc2ccccc2F)cc1S(=O)(=O)N1CCCC1,-1,1,-4,-0.1,3.0,-3,-1,-27,1.0,13
O=C(CSc1nc2ccccc2c(=O)n1-c1ccccc1Cl)NC1CCS(=O)(=O)C1 (stereo not drawn),-7,9,4,-1.7,3.7,0,x,-5,1.9,x
CSc1nc(N(C)NC(=O)c2ccccc2)c2ccccc2n1,8,x,x,x,-0.4,13,-1,-27,-0.1,-7
# (further entries)
SMILES,Beta2AR agonist,Ecoli rRNA inh,Ecoli rRNA inh OD600,Ecoli rRNA inh RFP,LANA-H2B inh,Beta cell apopt,Calb FLC,ALR H2O2 inh,Bfl-1 A1 inh,T cruzi repl
O=C(NCCNC(=O)c1ccc(Cl)cc1Cl)c1ccco1,-3,-2,1,-1.4,-0.6,-10,6,0,0.0,-5
CCC(=O)N(Cc1ccccc1)c1ccccn1,6,x,x,x,-0.8,-7,-10,2,0.7,-4
COc1ccc(S(=O)(=O)N2CCCC(C(=O)NCCc3ccccc3)C2)cc1 (stereo not drawn),-4,1,12,-2.7,-2.2,-8,2,-2,0.8,-12
COc1ccc(C2=NOC(C(=O)NCc3ccco3)C2)cc1OC (stereo not drawn),-5,x,x,x,3.3,18,10,0,-1.4,-98
Cc1cc(C)cc(NC(=O)CCn2ccnc2C)c1,0,x,x,x,x,4,13,x,-0.1,-7
N#CCC(=O)Nc1ccc(C(=O)OCC(=O)NNC(=O)c2ccc(Cl)cc2)cc1,-2,16,15,4.1,2.1,-3,x,67,0.0,-3
On1c(-c2ccccc2)nc2ccc(Cl)cc21,5,x,x,x,3.1,-6,43,x,0.2,-12
CN(C)S(=O)(=O)c1cccc(COC(=O)C2=COCCO2)c1,6,x,x,x,-1.2,-3,0,-24,0.7,-1
CC(C)CNC(=O)CSc1nc(-c2cccs2)cc(C(F)(F)F)n1,-6,x,x,x,-6.5,0,-19,-3,1.1,8
OC(CN1CCN(c2cccc(Cl)c2)CC1)c1ccccc1 (stereo not drawn),2,5,-5,-6.7,-0.9,-6,-4,64,0.1,-2
Cc1ccc(N2CCN(C(=O)C3CCC(=O)N(Cc4ccc(Cl)cc4)C3)CC2)c(C)c1 (stereo not drawn),2,-51,-78,-12,-1.5,-2,-1,-11,0.8,14
Cc1cc(NC(=O)Nc2ccc(F)cc2F)n(C)n1,3,1,2,3.6,9.3,-5,u,-3,0.2,-13
Cc1ccc(S(=O)(=O)NCC(c2ccc3c(c2)OCO3)N2CCOCC2)cc1 (stereo not drawn),-9,4,5,1.8,0.7,-8,-5,-37,-0.2,10
Cc1noc(C)c1COc1ccc(C(=O)N2CCN(S(=O)(=O)c3ccc(Cl)cc3)CC2)cc1,-2,1,-1,-1.2,1.6,5,-2,-3,-0.5,26
Cc1nc(NCC2CCCO2)[nH]c(=O)c1CCC(C)C (stereo not drawn),4,x,x,x,0.8,-10,-3,-5,0.4,-4
COc1ccc(C(=O)N/N=C/c2sc(=O)n(Cc3cccc(C(=O)O)c3)c2Cl)cc1,-3,-10,-12,-1.1,2.7,-1,-9,45,-0.6,-2
Cc1oc(-c2ccccc2F)nc1CN1CCC(C(=O)NCCC2=CCCCC2)CC1,-1,x,x,x,0.9,-3,-17,-18,0.4,17
CCCCN(C(=O)CSc1nnc2ccccn12)c1c(N)n(Cc2ccccc2)c(=O)[nH]c1=O,-5,-2,-2,-2.5,1.2,-2,-2,-5,0.6,-6
NS(=O)(=O)c1ccc(NC(=O)CSc2nnc(COc3ccccc3Cl)n2C2CC2)cc1,9,x,x,x,6.9,-4,x,-4,-0.5,x

# These rows are one share of the data; rates above refer to the full screens.
